Compound activity (PubChem BioAssay)
MITF inhib = inhibitors of MITF, primary screen, MITF inhibitor project, cell-based, luminescence | TRPM1 promoter luciferase, 24 h | inhibition, % (test concentration not listed) | 0.28% of 37,000 active;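 active means most replicates at 85% or more, or half of them and the mean; inconclusive means half reach 85% but not the mean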;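 further: human melanocyte line stably carrying TRPM1 promoter luciferase reporter; 0% = vehicle wells and 100% = a positive control; the first replicate is given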
YB-1 expr inh = inhibitors of YB-1 gene expression, primary screen, cell-based, fluorescence. U2OS, qRT-PCR YB-1 vs CDIP delta delta Cp, 16 h; stronger effect = higher value; zero = DMSO, each unit about twofold. delta delta Cp (YB-1 minus CDIP) (test concentration not listed). 0.37% of 30,000 active. AID 434959, 2010;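 active means delta delta Cp rounded down to an integer at or above 3, about 3 SD of DMSO wells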;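 further: higher means less YB-1 transcript or more CDIP transcript relative to DMSO; stock transfer was 100 nL into about 100 µL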
PD-1 reversal = activators reversing PD-1 mediated T-cell inhibition, primary screen, luminescence, primary human CD4 T cells, PD-L1 beads | CellTiter-Glo 96 h | activation, % (no concentration beside the values) | 29,000 tested, under 10 active | AID 2316, 2010;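 active means replicate mean of 50% or more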;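 further: 0% = median vehicle wells and 100% = positive control; 100 nL library stock added to about 50 µL; numbers are from one replicate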
Shh pathway inh = Hedgehog pathway signaling inhibitors, primary screen, luminescence, Shh-LIGHT2 cells, Gli-luciferase; inhibition, % (no concentration beside the values); 2.1% of 22,000 active; Shh-LIGHT2 Gli-luciferase reporter, 30 h;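 active means replicate mean of 65% or more; inconclusive means mean lower but half the replicates past it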;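 further: pathway switched on by Shh-conditioned medium diluted 1 in 25 in low serum; 100 nL library stock added to about 40 µL; 0% = median of neutral wells and 100% = positive control level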
Starred values were filed as active, the others as inactive; ? = inconclusive; / = not tested or not shown. An excerpt; count on the stated rates, not on these rows.

The line under a structure holds: PD-1 reversal | Shh pathway inh | YB-1 expr inh | MITF inhib
CC(C)(C)c1cc(C(F)(F)F)c(C#N)c(SCC(=O)Nc2cccc(F)c2)n1
  -2.7 | / | / | 23
Cc1ccc(S(=O)(=O)N(C)C[C@H]2Oc3ccc(NC(=O)c4ccncc4)cc3C(=O)N([C@H](C)CO)C[C@H]2C)cc1
  -1.1 | / | 0.34 | -17
Cc1noc(C)c1S(=O)(=O)Nc1ccc2c(c1)C(=O)N([C@H](C)CO)C[C@H](C)[C@H](CN(C)C)O2
  1.3 | -27 | 0.3 | -3
COc1ccc(NC(=O)N(C)C[C@@H]2Oc3c(NS(=O)(=O)c4cn(C)cn4)cccc3C(=O)N([C@H](C)CO)C[C@@H]2C)cc1
  0.5 | 8 | 0.39 | -6
COC(=O)c1cc(Br)ccc1NC(=O)COc1ccc(C(C)(C)C)cc1
  0.9 | / | / | -18
Cc1ccc2oc(-c3cc(NC(=O)COc4ccccc4)ccc3Cl)nc2c1
  2.1 | / | / | -21
O=C1c2ccccc2C(=O)N1CCCc1nc(-c2ccccn2)no1
  3.0 | / | / | -36
Cc1cc(NS(=O)(=O)c2ccc(NC(=O)C3COc4ccccc4O3)cc2)nc(C)n1 (stereo unspecified)
  2.0 | / | / | 3
CC1CN(c2ccc(NC(=S)NCc3ccco3)cc2)CC(C)O1 (stereo unspecified)
  -0.2 | / | 0.28 | -4
C[C@@H]1CN([C@@H](C)CO)C(=O)c2cccc(NC(=O)CCCCCC(=O)Nc3ccccc3N)c2O[C@@H]1CN(C)Cc1ccc(Cl)c(Cl)c1
  -0.3 | / | -0.13 | 39
O=S(=O)(Cc1ccccc1)c1ccc(C(F)(F)F)cn1
  -0.2 | 0 | 0.13 | -11
Cn1cc(S(=O)(=O)Nc2ccc(Oc3c(Cl)cccc3Cl)nc2)cn1
  0.6 | -12 | 0.17 | 3
C[C@@H]1CN([C@H](C)CO)C(=O)Cc2cc(NC(=O)C3CCCCC3)ccc2O[C@@H]1CN(C)S(=O)(=O)c1ccc(F)cc1
  / | / | -0.13 | 7
Cc1c(O)c(-c2ccccc2)c(=O)n(-c2ccccn2)c1-c1ccccc1
  0.2 | -30 | -0.43 | 9
CCn1c(SCC(=O)c2ccc(OC)cc2)nnc1-c1cc2cccc(OC)c2o1
  -5.9 | / | / | 27
CC(C)NC(=O)N(C)C[C@@H]1Oc2ccc(NS(=O)(=O)c3ccc(F)cc3)cc2C(=O)N([C@H](C)CO)C[C@@H]1C
  / | / | -0.18 | 1
C[C@H](CO)N1C[C@H](C)[C@@H](CN(C)C(=O)Nc2cccc3ccccc23)Oc2ccc(NS(=O)(=O)c3ccccc3)cc2C1=O
  0.8 | -5 | -0.15 | 3
C[C@H]1CN([C@@H](C)CO)C(=O)c2cc(NC(=O)c3ccncc3)ccc2O[C@@H]1CN(C)CC1CCCCC1
  0.3 | -23 | 0.009 | 0
COc1ccc(S(=O)(=O)Nc2cccc3c2O[C@@H](CN(C)Cc2ccc(C(=O)Nc4ccccc4N)cc2)[C@@H](C)CN([C@@H](C)CO)C3=O)cc1
  -1.9 | / | -1.3 | 15
C[C@@H]1CN([C@H](C)CO)C(=O)Cc2cc(NC(=O)C3CC3)ccc2O[C@H]1CN(C)C(=O)Nc1ccccc1
  -0.5 | -15 | 0.12 | -3
COc1ccc(NC(=O)CSc2nccc(=O)[nH]2)cc1Cl
  -0.8 | / | / | 1
C[C@H]1CN([C@@H](C)CO)C(=O)Cc2cc(NS(=O)(=O)c3ccccc3)ccc2O[C@@H]1CN(C)C
  0.4 | / | 0.031 | 22
C[C@@H]1CN([C@@H](C)CO)C(=O)Cc2cc(NC(=O)Cc3cn(C)c4ccccc34)ccc2O[C@@H]1CN(C)Cc1ccc(Cl)c(Cl)c1
  -3.6 | -20 | -0.26 | 17
C[C@@H]1CN([C@@H](C)CO)C(=O)c2cccc(NC(=O)Nc3ccc4c(c3)OCO4)c2O[C@@H]1CN(C)Cc1ccc(C(F)(F)F)cc1
  0.9 | 38 | -0.29 | -1
C[C@@H]1CN([C@@H](C)CO)C(=O)Cc2cc(NC(=O)NC3CCCCC3)ccc2O[C@@H]1CN(C)S(=O)(=O)c1cccs1
  / | 20 | -0.25 | -7
CC(C)NC(=O)N(C)C[C@@H]1Oc2ccc(NS(C)(=O)=O)cc2C(=O)N([C@@H](C)CO)C[C@@H]1C
  -1.3 | / | -0.16 | -2
CCOc1ccc(-n2c(SCC(=O)c3ccccc3)nnc2-c2ccncc2)cc1
  -4.2 | / | / | 2
COc1ccc(C(=O)NCCNc2ccc([N+](=O)[O-])cc2)cc1
  0.2 | / | / | 6
COc1ccc(N(C(C)C(=O)Nc2ccc(Cl)c(Cl)c2)S(C)(=O)=O)cc1 (stereo unspecified)
  0.2 | / | / | 8
C[C@H](CO)N1C[C@H](C)[C@H](CN(C)Cc2ccc(-c3ccccc3)cc2)Oc2ccc(NS(=O)(=O)c3ccc(Cl)cc3)cc2C1=O
  0.4 | 29 | -0.18 | 14
CC(C)NC(=O)Nc1ccc2c(c1)C(=O)N([C@@H](C)CO)C[C@H](C)[C@@H](CN(C)Cc1ccc(-c3ccccc3)cc1)O2
  -1.4 | 19 | 0.037 | 9
Cc1cccc(C)c1OCc1nnc(CCc2ccccc2)o1
  0.2 | 31 | -0.21 | 5
COC1=CC(=O)C[C@@H](C)[C@]12Oc1c(Cl)c(OC)cc(OC)c1C2=O
  / | -15 | -0.37 | 10
COc1ccc(S(=O)(=O)Nc2ccc3c(c2)CC(=O)N([C@H](C)CO)C[C@@H](C)[C@H](CN(C)Cc2ccc(C(F)(F)F)cc2)O3)cc1
  -1.7 | -1 | 0.52 | -23
C[C@@H]1CN([C@H](C)CO)C(=O)c2cc(NS(=O)(=O)c3cccs3)ccc2O[C@H]1CN(C)Cc1ccccc1
  -0.1 | -3 | 0.17 | 6
NC(=O)CSc1oc(-c2ccc(F)cc2)nc1S(=O)(=O)c1ccc(Cl)cc1
  3.5 | / | / | 17
C[C@@H]1CN([C@@H](C)CO)C(=O)c2cc(NC(=O)Cn3cnnn3)ccc2O[C@H]1CN(C)S(=O)(=O)c1cccs1
  0.9 | 6 | 0.017 | -4
C[C@@H]1CN([C@H](C)CO)C(=O)Cc2cc(NS(=O)(=O)c3ccc(Cl)cc3)ccc2O[C@@H]1CN(C)C(=O)Nc1ccc(F)cc1
  / | -8 | 0.22 | -13
C[C@@H]1CN([C@H](C)CO)C(=O)c2cc(NC(=O)CCC(F)(F)F)ccc2O[C@@H]1CN(C)Cc1ccc2c(c1)OCO2
  0.7 | -16 | -0.036 | 2
C[C@@H]1CN([C@@H](C)CO)C(=O)c2cccc(N(C)C)c2O[C@H]1CN(C)C(=O)Nc1ccc(C(F)(F)F)cc1
  -0.9 | -15 | 0.11 | 1
Cc1ccc(S(=O)(=O)Nc2ccc3c(c2)CC(=O)N([C@H](C)CO)C[C@@H](C)[C@H](CN(C)C(=O)NC2CCCCC2)O3)cc1
  -0.2 | -1 | -0.072 | -2
CCn1cc(C(=O)O)c(=O)c2cc(F)c(N3CCNCC3)cc21
  / | -60 | 1 | -36
Cc1cc(C(=O)Nc2cccc3c2O[C@H](CN(C)Cc2ccc(Oc4ccccc4)cc2)[C@H](C)CN([C@H](C)CO)C3=O)n(C)n1
  -1.8 | 4 | 0.2 | -11
C[C@H](CO)N1C[C@H](C)[C@H](CN(C)C)Oc2c(NS(=O)(=O)c3ccccc3)cccc2C1=O
  -0.7 | -38 | 0.078 | -7
CNC[C@@H]1Oc2ccc(NC(=O)Cc3ccccc3)cc2C(=O)N([C@@H](C)CO)C[C@H]1C
  0.9 | 9 | -0.31 | -1
C[C@H](CO)N1C[C@H](C)[C@@H](CN(C)C(=O)Nc2cccc3ccccc23)Oc2ccc(NC(=O)NC3CCCCC3)cc2C1=O
  0.4 | 18 | 0.074 | -2
C[C@H](CO)N1C[C@H](C)[C@@H](CN(C)Cc2ccc(C(=O)O)cc2)Oc2c(NS(=O)(=O)c3ccccc3)cccc2C1=O
  / | -62 | 0.47 | -6
COc1ccc(S(=O)(=O)N(C)C[C@H]2Oc3ccc(NC(=O)Nc4c(C)noc4C)cc3CC(=O)N([C@H](C)CO)C[C@H]2C)cc1
  0.1 | -2 | 0.5 | -9
COc1ccc(NC(=O)Nc2cccc3c2O[C@@H](CN(C)Cc2ccc(C(=O)Nc4ccccc4N)cc2)[C@H](C)CN([C@H](C)CO)C3=O)cc1
  -1.6 | / | -0.27 | 19
C[C@H](CO)N1C[C@H](C)[C@H](CN(C)Cc2ccc(C(=O)O)cc2)Oc2ccc(NC(=O)Cc3ccccc3)cc2C1=O
  1.4 | -12 | -0.16 | -6
COc1ccc(S(=O)(=O)N(C)C[C@H]2Oc3ccc(NS(=O)(=O)c4ccccc4)cc3C(=O)N([C@@H](C)CO)C[C@H]2C)cc1
  -0.2 | / | 0.35 | -13
CCNc1nc(Oc2ccc(=O)[nH]n2)nc(SC)n1
  2.3 | / | / | -10
CNC[C@@H]1Oc2c(NC(=O)c3cnccn3)cccc2C(=O)N([C@H](C)CO)C[C@@H]1C
  / | ? | -0.19 | -6
FC(F)(F)c1cc(-c2cn3ccccc3n2)cc(C(F)(F)F)c1
  -1.2 | -4 | -0.29 | 3
CN(CC(=O)Nc1ccc2c(c1)OCCO2)S(=O)(=O)c1cc(Cl)ccc1Cl
  2.6 | / | / | 3
OC(c1nc2ccccc2[nH]1)C(O)C(O)C(O)c1nc2ccccc2[nH]1 (stereo unspecified)
  -0.4 | -15 | 0.21 | 1
CC(=O)O[C@@H]1[C@@H](OC(=O)/C=C/c2ccccc2)[C@@H](OC(C)=O)[C@H](O[C@H]2[C@@H]3C=CO[C@@H](O[C@@H]4O[C@H](CO)[C@@H](O)[C@H](O)[C@H]4O)[C@@H]3[C@@]3(CO)O[C@@H]23)O[C@H]1C
  0.6 | -24 | -0.73 | -1
CC(=O)O[C@@H]1C[C@@]2(C)C(CC[C@@H]2C(C)=O)C2CCC3=CC(=O)CC[C@]3(C)C21 (stereo partly specified)
  / | 19 | 0.16 | 1
C=C1C(=O)O[C@@H]2C[C@@]3(C)[C@@H](O)C[C@@H](O)C(=C)[C@@H]3C[C@H]12
  -3.8 | 38 | -0.37 | 26
Cc1ccc(S(=O)(=O)Nc2cccc3c2O[C@@H](CN(C)Cc2ccc4c(c2)OCO4)[C@@H](C)CN([C@H](C)CO)C3=O)cc1
  -2.6 | 11 | -0.35 | 4

The list goes on:
The line under a structure holds: PD-1 reversal | Shh pathway inh | YB-1 expr inh | MITF inhib
Cc1ccc(NC(=O)CSc2nc3cc(Cl)ccc3s2)c(C)c1
  -0.2 | / | / | -8
O=c1c2ccccc2nc(CSc2nnnn2-c2ccccc2)n1-c1ccccc1Cl
  -0.4 | / | / | -9
COc1ccc(C)cc1NC(=O)CNS(=O)(=O)c1c(C)cc(C)cc1C
  0.4 | / | / | 15
Cc1noc(C)c1NC(=O)Nc1ccc2c(c1)C(=O)N([C@H](C)CO)C[C@@H](C)[C@H](CN(C)CC1CCCCC1)O2
  0.7 | -10 | 0.37 | -10
COc1ccc(S(=O)(=O)N(C)C[C@@H]2Oc3ccc(NS(=O)(=O)c4cn(C)cn4)cc3C(=O)N([C@H](C)CO)C[C@@H]2C)cc1
  -1.1 | 2 | -0.085 | 3
CNC[C@@H]1Oc2ccc(NC(=O)C3CCCCC3)cc2CC(=O)N([C@H](C)CO)C[C@H]1C
  -0.7 | -70 | -0.026 | -6
C[C@@H]1CN([C@H](C)CO)C(=O)c2cccc(NS(=O)(=O)c3cccs3)c2O[C@H]1CN(C)C(=O)NC1CCCCC1
  1.0 | -2 | -0.23 | -9
Cc1ccc(/C=N/N(C)S(=O)(=O)c2ccc(C)cc2)cc1
  -0.1 | -41 | -0.31 | 67
Cc1noc(C)c1NC(=O)Nc1ccc2c(c1)CC(=O)N([C@H](C)CO)C[C@H](C)[C@H](CN(C)Cc1ccc(C(=O)Nc3ccccc3N)cc1)O2
  0.6 | / | 0.023 | 10

Some of the entries above in a different format:
SMILES | PD-1 reversal | Shh pathway inh | YB-1 expr inh | MITF inhib
Cc1ccc(NC(=O)CSc2nc3cc(Cl)ccc3s2)c(C)c1 | -0.2 | / | / | -8
O=c1c2ccccc2nc(CSc2nnnn2-c2ccccc2)n1-c1ccccc1Cl | -0.4 | / | / | -9
COc1ccc(C)cc1NC(=O)CNS(=O)(=O)c1c(C)cc(C)cc1C | 0.4 | / | / | 15

Full records, looked up by structure:
Listed for COc1ccc(NC(=O)N(C)C[C@@H]2Oc3c(NS(=O)(=O)c4cn(C)cn4)cccc3C(=O)N([C@H](C)CO)C[C@@H]2C)cc1 : PD-1 reversal: 0.5; Shh pathway inh: 8; YB-1 expr inh: 0.39; MITF inhib: -6
Listed for CN(CC(=O)Nc1ccc2c(c1)OCCO2)S(=O)(=O)c1cc(Cl)ccc1Cl : PD-1 reversal: 2.6; Shh pathway inh: /; YB-1 expr inh: /; MITF inhib: 3
